gsp ag = qHTS for Agonist of gsp, the Etiologic Mutation Responsible for Fibrous Dysplasia/McCune-Albright Syndrome: qHTS. AID 624287, 2012. gsp mutant cells, cAMP HTRF, 30 min; control for the full effect not named in the record. 340,000 tested, 0.13% active. Potency, µM (titrated, usually from 76.9 µM), for inactives: top-dose activation (cAMP increase), most hits filed as activators; active = well fitted activation curve with a large enough effect; inconclusive = small, poorly fitted or top-dose-only effect, or another doubt; inactive = no such curve, though single readings can be large or run the other way; cell line not stated here;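 also: phosphodiesterase inhibitor Ro 20-1724 added with compounds to block cAMP breakdown; potency is read from the fitted curve at half-maximal effect; nearly all actives have a fitted effect of over 60% in size; about a fifth of the inactives were tested at one dose only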
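Cells stably selected in G418 were plated at 2000/well, grown 16-24 hr, then given compounds in DMSO with the PDE inhibitor […] (300 uM solution added) for 30 min at 37C; cAMP was read by HTRF.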
gsp antagonist = qHTS for Antagonists of gsp, the Etiologic Mutation Responsible for Fibrous Dysplasia/McCune-Albright Syndrome: qHTS. Potency, µM (series often up to 76.9 µM), for the others: at the top dose activity change, negative = inhibition, usual class: inhibitors. gsp-mutant cells, cAMP HTRF, 30 min; control for the full effect not named in the record. 340,000 tested, 0.4% active; active = falling curve of any shape with a large fitted effect; inconclusive = falling curve, mostly with a smaller effect; inactive = flat or rising curve; cell line not stated here;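 also: intracellular cAMP measured with PDE inhibitor Ro 20-1724 present during compound exposure; potency is read from the fitted curve at half-maximal effect; % is scaled to controls: 0 for no effect and ±100 for the full control effect; nearly all actives have a fitted effect of over 65% in size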
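HTRF cAMP read-out (cAMP-d2 plus anti-cAMP antibody-K in lysis buffer, 30 min RT). Before lysis, cells are exposed to compounds with […] for 30 min at 37C in DPBS containing Ca/Mg, BSA and Tween 20.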
TRPV1 PAM = HTS Assay for Compounds that Act as Potentiators of the Vanilloid Receptor 1. Transient receptor potential cation channel subfamily V member 1 (Homo sapiens), Q8NER1. TRPV1-expressing cells, Fluo-8 calcium influx, capsaicin EC20 potentiation; host cell line not named in the record; control for the full effect not named in the record. potentiation, % at 8.33 µM. 320,000 tested, 0.02% active; active means potentiation above 80%; inconclusive means 30% to 80%; inactive means below 30%; also: 0% is about no effect
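Fluo-8 calcium influx in TRPV1-expressing cells, kinetic read (ex 480/em 520 nm). Compound added and read 3 min for agonist activity, followed by capsaicin at EC20 final and 2 min further read for enhancement.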
Menin-MLL FL inh = qHTS Assay for Inhibitors Targeting the Menin-MLL Interaction in MLL Related Leukemias: Competition With Fluorescein Labeled MLL-derived Peptide. Fluorescence polarization, fluorescein-MLL peptide displacement from menin. FP activity change, % at 61.4 µM. 290,000 tested, under 10 active; inconclusive = falling polarisation curve, or a change in total fluorescence; inactive = total fluorescence flat and polarisation flat or rising; no compound was filed as active; the % refers to the polarisation; negative = inhibition;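 also: % of control where 0% means no effect; inhibitors lower the polarisation; unlabelled MLL peptide was the positive control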
Sfp PPTase inh = qHTS Assay for Inhibitors of Bacillus subtilis Sfp phosphopantetheinyl transferase (PPTase). Potency, µM, for inactives: max response, negative = inhibition, usual class: inhibitors. Biochemical Sfp PPTase activity, qHTS. 310,000 tested, 3.5% active. 4'-phosphopantetheinyl transferase ffp (Bacillus subtilis), Q9F4F7; active = well fitted inhibition curve with a large enough effect; inconclusive = small, poorly fitted or top-dose-only effect, or another doubt; inactive = no such curve, though single readings can be large or run the other way;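 also: the enzyme is Sfp with the accession as filed and its product quenches rhodamine fluorescence; potency is read from the fitted curve at half-maximal effect; 0% = enzyme reaction without inhibitor and -100% = no enzyme wells; top concentration of the series not given in the record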
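Buffer: 50 mM Hepes-Na pH 7.6, 10 mM MgCl2, 0.01% Nonidet P-40, 0.01% BSA. Enzyme 15 nM, pre-exposed to compound 15 min; substrates then added and fluorescence change tracked over 30 min.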
D2 potentiator = Beta-Arrestin HTS for Positive Allosteric Modulators of the Human D2 Dopamine Receptor: Potentiators. AID 624464, 2012. D(2) dopamine receptor (Homo sapiens), P14416. 360,000 tested, 0.23% active. DiscoveRx D2 beta-arrestin cells, luminescence, 90 min; 100% = 57 uM dopamine signal. potentiation, % (test concentration not listed); active = potentiation of 50% or more; inconclusive = 30% to 50%; inactive = 30% or less;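 also: compound concentration not given in the record; tested on top of an EC20 dose of dopamine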
Target sequence (P14416 whole entry, looked up): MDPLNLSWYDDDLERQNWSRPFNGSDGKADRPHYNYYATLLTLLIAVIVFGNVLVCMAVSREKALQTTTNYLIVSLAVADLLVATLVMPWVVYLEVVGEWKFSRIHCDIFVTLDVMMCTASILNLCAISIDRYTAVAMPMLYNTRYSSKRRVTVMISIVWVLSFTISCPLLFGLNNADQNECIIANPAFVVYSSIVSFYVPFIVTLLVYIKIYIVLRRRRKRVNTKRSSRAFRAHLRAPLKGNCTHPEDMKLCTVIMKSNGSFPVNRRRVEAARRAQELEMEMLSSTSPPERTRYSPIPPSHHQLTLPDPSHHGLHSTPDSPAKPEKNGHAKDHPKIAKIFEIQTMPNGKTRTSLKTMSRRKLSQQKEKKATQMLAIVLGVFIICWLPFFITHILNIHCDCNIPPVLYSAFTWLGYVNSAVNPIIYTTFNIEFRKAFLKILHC
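PathHunter beta-arrestin assay in DiscoveRx D2 cells. Compounds were added with an EC20 of dopamine (50 nM final) for 90 min at 37 deg C. Luminescence was read 1 h after detection reagent, with 57 uM dopamine as the EC100 control.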
ClpP mod = qHTS Assay for Activators of ClpP; 340,000 tested, 1.9% active; Potency, µM (series often up to 57.5 µM), for inactives: at the top dose activity change, negative = active; purified B. subtilis ClpP, FRET peptide cleavage, 20 min; ATP-dependent Clp protease proteolytic subunit (Bacillus subtilis (strain 168)), P80244; active = well fitted falling curve with a large enough effect; inconclusive = small, poorly fitted or top-dose-only effect; inactive = no such curve, though single readings can be large or run the other way; also: potency is read from the fitted curve at half-maximal effect; the source files actives as falling curves though it sought activators and does not explain the sign; nearly all actives have a fitted effect of over 65% in size; many hits overshoot -100%
Target sequence (P80244 whole entry, looked up): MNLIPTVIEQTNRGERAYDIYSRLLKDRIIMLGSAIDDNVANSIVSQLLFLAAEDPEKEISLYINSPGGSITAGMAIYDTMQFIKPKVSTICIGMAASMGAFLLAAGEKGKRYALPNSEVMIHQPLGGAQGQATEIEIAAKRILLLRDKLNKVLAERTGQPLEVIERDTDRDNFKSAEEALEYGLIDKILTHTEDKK
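Purified B. subtilis ClpP, 10 microg/mL final in Tris/HCl pH8 with KCl, BSA, glycerol and Tween-20, cleaved an Abz/nitrotyrosine-quenched decapeptide. Fluorescence (ex 320, em 430) was read at 0 and 20 min at room temperature. Delta was normalized to 5.8 microM ADEP and DMSO/no-enzyme controls.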
Starred values were filed as active, the others as inactive; ? = inconclusive; / = no result given; & = joins results of further samples; [ ] = remark or other dose.

SMILES	gsp ag	gsp antagonist	TRPV1 PAM	Menin-MLL FL inh	Sfp PPTase inh	D2 potentiator	ClpP mod
O=C(C[C@H]1C/C=C\C[C@H](Cc2ccc(F)cc2)C(=O)O[C@@H](c2ccccc2)CNC1=O)N[C@H](CO)Cc1ccccc1	0%	-5%	/	/	/	0	-0.1%
Cc1cc(C)nc(NC(=O)Cc2ccc([N+](=O)[O-])cc2)c1	-19%	11%	3	8.3	8%	-5	-7.0%
C(=N/Nc1nc(-c2ccccc2)cc(-c2ccccc2)n1)/c1cccnc1	?	?	-4	0.4	13%	-3	-9.5%
CCCCCCNC(=O)c1ncn[nH]1	-3%[15.4 µM]	-2%	-14	7.3	6%	-6	/
CC(C)Nc1nc(NC(C)C)nc(OCCOC(=O)c2ccccc2)n1	-7%[15.4 µM]	6%	-3	4.7	21%	6	0.4%
Cn1c(SC/C=C/c2ccccc2)nnc1-c1cccs1	-28%	-7%	-3	-2.0	-4%	-2	0.3%
CCCn1c(N)c(C(=O)CSc2nc3ncc(Cl)cc3[nH]2)c(=O)[nH]c1=O	27%	5%	22	/	/	-4	-3.0%
N#CCCN(C(=O)CSc1n[nH]c(=O)[nH]c1=O)c1ccccc1	-1%	9%	/	/	/	11	-6.1%
Cc1ccccc1S(=O)(=O)Nc1ncc(C(F)(F)F)cc1Cl	-2%[15.4 µM]	/	7	-4.3	15%	-15	/
CCOC(=O)/C=C1\CN(Cc2ccc(OC)cc2)S(=O)(=O)c2ccccc21	/	-17%	6	0.7	-9%	-18	-0.8%
CCOc1ccc(N2CC(C(=O)OCC(=O)c3ccc(OC)cc3)CC2=O)cc1 (stereo not given)	-11%[15.4 µM]	-2%	-6	4.5	-4%	4	0.6%
CNC(=O)COc1coc(CN2CCN(c3cccc(Cl)c3)CC2)cc1=O	-6%	5%	-1	-2.1	1%	-26	-2.2%
O=C(CSc1nnc(CNc2ccccc2)o1)N1CCc2ccccc21	3%	3%	-1	3.4	14%	9	-1.7%
COc1ccccc1C(=O)Nc1ccnn1C1CCN(C(=O)C(C)(C)C)CC1	-4%	3%	8	-3.9	7%	-2	0.3%
CCC1CCC(C(=O)NC(C(=O)NCCN2CCOCC2)C(C)C)CC1 (stereo not given)	29%	-2%	?	4.2	1%	-1	/
COc1ccc(/C=C/C(=O)NC(=S)NNC(=O)c2c(-c3ccccc3)noc2C)cc1	-4%[15.4 µM]	-3%	9	2.3	20%	-39	0.9%
CC1(C)CC(=O)c2cnc3nc4ccccc4n3c2C1	29%	2%	-4	1.0	50µM*	-9	-1.7%
C=CCn1c(SCC(=O)NCc2ccc3c(c2)OCO3)nnc1-c1cccnc1	-7%[15.4 µM]	6%	5	-2.8	14%	3	/
CN1CCc2c(sc(/N=C/c3cccs3)c2C(N)=O)C1	-26%	-3%	5	?	2%	-11	10µM*
O=C(COC(=O)/C=C/c1cn(-c2ccccc2)nc1-c1cccnc1)Nc1ccc(Cl)cc1Cl	11%[15.4 µM]	3%	-12	4.4	?	15	-9.2%
COc1ccc(CNC(=O)Cn2nc(C)n3cccc3c2=O)cc1	?	11%	6&8	-4.1	9%	-13	-0.6%&-1.1%
CC1=C(C(N)=O)C(c2cccs2)n2nc(-c3cccc(C)c3)nc2N1 (stereo not given)	15%	-2%	-11	1.6	15%	1	-3.5%
COC(=O)c1ccc(NC(=S)NCc2ccco2)cc1	-7%[15.4 µM]	-9%	-33	-6.5	6%	-2	/
Nc1ncc(Br)cc1N=Cc1ccccc1	7%	?	7	?	79µM*	-5	-1.8%
O=C(NC1CCCc2ccccc21)c1cc(F)cc(F)c1 (stereo not given)	?	0%	23	-14	5%	-6	/
Cn1c(=O)oc2cc(S(=O)(=O)N3CCC(C(=O)NCc4ccc(F)cc4)CC3)ccc21	-19%	1%	-5	5.3	14%	-8	2.3%&0.9%
C=CCNC(=S)NNC(=O)COc1ccc(Br)cc1	12%	-1%	10	0.0	17%	-10	-5.0%
COc1ccc(NC(=O)C2CSC(C)(C)N2C=O)cc1 (stereo not given)	-11%	-1%	4	-2.9	11%	-5	-2.1%
CC(O)C(NS(=O)(=O)c1ccc(Cl)cc1)C(=O)OCC(=O)Nc1cccnc1Cl (stereo not given)	-17%[15.4 µM]	12%	-4	0.9	-1%	-2	-0.2%
Cc1noc(C)c1NC(=O)N(C)C[C@H]1Oc2c(NS(=O)(=O)c3cccs3)cccc2C(=O)N([C@H](C)CO)C[C@@H]1C	-41%[inhibitor]	4%	/	/	/	-6	-0.9%
Cc1cc(C)c2c(=O)cc(C(=O)NCc3ccccc3)oc2c1	-8%[15.4 µM]	-7%	17	/	-8%	-11	-0.7%
O=C(COc1ccc(Cl)cc1)NC(=S)Nc1ccccc1N1CCOCC1	?	-21%	10	1.8	8%	-16	-2.0%
O=C(OCc1c(Cl)cccc1Cl)c1cccnc1Cl	-12%	?	4	-2.2	8%	7	0.4%
C(=N\Nc1ncnc2ccccc12)/c1ccccc1	-7%[15.4 µM]	-10%	-19	0.3	-22%	-5	/
Cc1n[nH]c(=O)nc1N/N=C/c1ccco1	4%[15.4 µM]	-5%	-4	-0.1	40µM*	-6	/
COc1ccc(/C=N/c2nc3ccccc3n2CCN2CCCCC2)cc1OC	-4%	-1%	2	1.5	23%	2	-0.3%
Cc1cc(OCC(=O)NCC(O)c2ccccc2)c2c(C)cc(=O)oc2c1 (stereo not given)	4%	-11%	12	/	20%	-2	3.6%
CCOC(=O)CC(=O)NC(C)(C)CCCCC(C)(C)NC(=O)CC(=O)OCC	-72%[inhibitor]	-5%	-12	-1.0	21%	1	0.9%
COc1ccc(-c2nc3c(s2)CN(S(C)(=O)=O)CC3)cc1OC	-6%[15.4 µM]	7%	22	1.6	4%	-7	-0.2%
Cc1nnc(-c2ccccc2)c(=O)n1/N=C/c1c(O)ccc2ccccc12	9%	?	4	?	13%	1	-7.8%
CC(=O)O/N=C(/c1nonc1N)N1CCN(c2ccc([N+](=O)[O-])cc2Cl)CC1	-20%	-1%	-9	0.1	-6%	-3	1.9%
COc1ccc2oc(C(=O)OCC(=O)N3CCCC(C)C3)c(C)c2c1 (stereo not given)	-4%	6%	12	/	/	7	14µM*
CCn1c(CSc2nnc(-c3ccncc3)n2CCOC)nc2cc(C(=O)O)ccc21	15%[15.4 µM]	15%	-4	-15	-3%	-7	/
O=C(CCNS(=O)(=O)c1ccccc1Cl)N1CCN(c2ccccn2)CC1	-9%	5%	-5	/	/	-12	-14%
Cc1ccc(C2=NNC(C(O)C(O)C(O)C(C)O)S2)cc1 (stereo not given)	3%	10%	3	-1.1	-9%	8	-13%
CC1Cc2ccccc2N1c1ncnc2c1nnn2Cc1ccccc1Cl (stereo not given)	-22%	-3%	3	-0.2	4%	1	?
CC(C)NC(=O)COC(=O)c1ccccc1C(=O)c1ccccc1	-2%	0%	-17	1.3	9%	-3	1.7%
C=CCN=c1scc(C)n1/N=C/c1ccc(O)c(O)c1	24%	-3%	9	-3.3	32µM*	16	-2.0%
O=C1NCC(NC(=O)C(F)(F)F)c2cc3c(cc21)OCO3 (stereo not given)	-12%[15.4 µM]	2%	3	-1.1	21%	6	/
CCCc1[nH]nc2c1C(c1c(C)nn(-c3ccccc3)c1Cl)C(C#N)=C(N)O2 (stereo not given)	34%	-24%	-2	-2.8	6%	6	-2.7%
CCN1/C(=N\N)c2cccc3cccc1c23	13%	-3%	-23	?	35µM*	13	0.0%
Cc1nnc(SCC(=O)NCc2ccco2)n1-c1ccc(F)cc1	-39%[inhibitor]	4%	-6	-0.2	18%	2	0.0%
CN1/C(=C/C=C(C#N)C#N)C=Cc2ccccc21	-12%	-15%	-11	?	4%	-4	2.8%
CC(CCc1ccccc1)NC(=O)CNC(=S)N(Cc1cccs1)C1CCCC1 (stereo not given)	10%[15.4 µM]	-17%	-2	-0.5	?	-5	/
O=C(NCC(=O)N1CCN(c2ccccc2)CC1)c1ccco1	-24%	4%	-1	-0.9	7%	-7	-1.3%
CC(C)C1C(=O)N(Cc2cn(CC3CCCCC3)nn2)CCS(=O)(=O)N1Cc1ccc(-c2ccc(Cl)cc2)cc1 (stereo not given)	-95%[inhibitor]	/	/	/	/	-1	-0.4%
O=C(CCCN1C(=O)C(c2ccccc2)Oc2cccnc21)Nc1ccccc1Cl (stereo not given)	-2%	-2%	-1	4.4	8%	-8	0.7%
C[C@]12CCC(=O)C[C@@H]1CC[C@@H]1[C@@H]2CC[C@]2(C)[C@@H](C(=O)COC(=O)CCC(=O)O)CC[C@@H]12	14%&-17%	-10%&-14%	-1&-3	-4.5&0.4	-3%&2%	-2&-3	-2.4%&-2.9%
Oc1ccc(Cl)cc1C=Nc1ccc(Br)cc1	10%	-4%	-1	1.3	-14%	-2	/
O=c1ccn([C@@H]2O[C@H](CNS(=O)(=O)C3CC3)[C@@H](O)[C@H]2O)c(=O)[nH]1	/	12%	/	/	/	-1	0.2%
O=C(CCN1CCN(c2ccccc2)CC1)N/N=C/c1ccccc1O	17%[15.4 µM]	-16%	-1	-2.1	12%	-11	0.1%
COc1ccc(CCNC(=O)c2c(C)nn(-c3ccccc3)c2Cl)cc1	-36%	-1%	-17	/	9%	3	-2.4%
COC(=O)c1ccccc1NC(=O)CSc1n[nH]c(-c2ccncc2)n1	1%	-12%	1	/	15%	-18	-3.3%

Compound activity: PubChem, National Center for Advancing Translational Sciences (NCATS)

Random draw from the library (roughly 5.1% active in at least one column).
